Bioassay records (PubChem BioAssay)
CSC inhib: cancer stem cell viability inhibitors, primary screen, luminescence | cancer stem cell-like cells viability | inhibition, % at 7.5 µM | 1.1% of 300,000 active | AID 2717, 2010;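 active = mean at 75% or more and at least half the replicates too; tested in HMLE shEcad cells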;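 also: 0% = median of negative and 100% = median of positive control wells; the first replicate is given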
PABP FP inh: PABP poly(A) RNA binding inhibitors, primary screen, biochemical, fluorescence polarization, uHTS | Polyadenylate-binding protein 1 (Homo sapiens), P11940 | 1% of 290,000 active | inhibition, % at 35 µM;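 active = 50% or more with normal probe brightness, or confirmed in later tests; about a fifth of its hits are not listed in these tables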;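 also: calls also rest on retests at 20 µM and on dose response follow-up; controls were probe without protein and protein plus probe with vehicle; some compounds called inactive have numbers as strong as hits; many hits fall short of the cut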
Target sequence (P11940 whole entry, looked up): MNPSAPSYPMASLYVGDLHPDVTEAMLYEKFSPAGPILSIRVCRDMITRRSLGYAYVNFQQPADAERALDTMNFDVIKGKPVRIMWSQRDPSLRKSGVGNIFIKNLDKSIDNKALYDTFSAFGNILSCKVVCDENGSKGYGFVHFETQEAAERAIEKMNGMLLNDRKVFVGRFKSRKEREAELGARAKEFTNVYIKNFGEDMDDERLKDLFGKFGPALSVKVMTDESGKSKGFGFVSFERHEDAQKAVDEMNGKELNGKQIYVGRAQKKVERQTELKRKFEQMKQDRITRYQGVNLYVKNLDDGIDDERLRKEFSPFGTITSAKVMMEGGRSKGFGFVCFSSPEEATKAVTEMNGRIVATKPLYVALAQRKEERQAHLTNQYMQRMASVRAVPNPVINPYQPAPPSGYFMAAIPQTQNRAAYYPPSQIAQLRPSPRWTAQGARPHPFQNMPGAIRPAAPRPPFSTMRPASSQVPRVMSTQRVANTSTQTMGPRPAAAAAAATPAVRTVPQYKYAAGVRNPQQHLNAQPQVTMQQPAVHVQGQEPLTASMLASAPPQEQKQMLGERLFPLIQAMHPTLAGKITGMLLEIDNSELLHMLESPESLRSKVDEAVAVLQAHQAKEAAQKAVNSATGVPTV
MT1-MMP act inh: blockers of MT1-MMP proenzyme processing, primary screen, HT1080 RFP-PRO-GFP cells, GFP/RFP fluorescence; Matrix metalloproteinase-14 (Homo sapiens), P50281; GFP/RFP ratio fluorescence, overnight; percent of plate control window, DMSO zero; GFP/RFP ratio change, % at 20 µM; 0.061% of 360,000 active; AID 651647, 2012;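 active = GFP/RFP ratio change of at least 30% with cell ATP level not reduced by more than half and red fluorescence within 50% of control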; also: strong numbers were not always called active
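Assay system: RFP-PRO-GFP reporter HT1080 cells; read-out basis: GFP/RFP fluorescence ratio; benchmarks: DMSO wells and RFP-L50D-GFP cells; doses: 20 µM single dose, 1% DMSO; schedule: overnight cell settling, then overnight compound exposure, 37 °C, 5% CO2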
Rce1 inhib: yeast Rce1p protease inhibitors, primary screen, biochemical, fluorescence, cell-free homogeneous; CAAX prenyl protease 2 (Saccharomyces cerevisiae (strain ATCC 204508 / S288c)), Q03530; 0.27% of 290,000 active; calls only; yeast membranes, quenched prenylated peptide cleavage fluorescence;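 active = fall in fluorescence gain of 50% or more versus controls, with final raw signal at or below 3038400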;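 also: plate controls were neutral control wells for no effect and wells lacking membranes for full effect; tested at 10 µM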
Target sequence (Q03530 whole entry, looked up): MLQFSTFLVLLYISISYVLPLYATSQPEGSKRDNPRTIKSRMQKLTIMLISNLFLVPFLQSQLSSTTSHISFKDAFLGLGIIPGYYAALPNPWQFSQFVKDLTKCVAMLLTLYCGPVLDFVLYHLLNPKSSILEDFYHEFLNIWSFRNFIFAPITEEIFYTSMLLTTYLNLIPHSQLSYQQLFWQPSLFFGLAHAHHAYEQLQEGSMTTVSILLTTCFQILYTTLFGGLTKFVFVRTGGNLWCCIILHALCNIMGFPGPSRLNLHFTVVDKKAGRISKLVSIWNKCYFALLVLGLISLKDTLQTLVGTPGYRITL
eIF4H FP inh: human eIF4H binding inhibitors, primary screen, translation initiation inhibitor project, biochemical, uHTS, fluorescence polarization; eIF4H fluorescence polarization binding assay; inhibition, % at 35 µM; AID 2012, 2009; 0.94% of 290,000 active; Eukaryotic translation initiation factor 4H (Homo sapiens), Q15056;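 active = 50% or more with normal probe brightness, or confirmed in later tests; about a fifth of its hits are not listed in these tables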;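 also: calls also rest on retests at 20 µM and on dose response follow-up; 0% = protein and probe with vehicle and 100% = probe without protein; strong numbers were not always called active; many hits fall short of the cut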
Yeast UUG start: modulators of yeast start codon fidelity, primary screen, whole organism, S. cerevisiae, single point, plate reader | S. cerevisiae UUG-firefly luciferase reporter, luminescence/redox ratio | activity score, % at 18.7 µM | 0.13% of 350,000 active;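 active = replicate mean at a twofold rise or more, about +100% in these data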;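 also: firefly luciferase made from a UUG start codon reports start codon fidelity; reporter light over untreated wells divided by growth signal over untreated wells; some hits fall short of that in this replicate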
Env fusion inh: inhibitors of HIV-1 Env-driven cell-cell fusion, primary screen, HeLa-JRFL effector, CEM21 target cells, luciferase; inhibition, % at 12.3 µM; 1.1% of 360,000 active; AID 651610, 2012;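 active = mean replicate inhibition score of at least 50 and every replicate individually at or above 50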;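 also: 0% = plate neutral controls and 100% = maraviroc near 300 nM; one replicate is shown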
eIF4H FP inh retest: second read-out of eIF4H FP inh, no call of its own (marks repeat the call); inhibition, %; compound at 20 µM; confirmation average;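 mean of two retest wells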
PABP FP inh retest: recorded beside PABP FP inh, whose call it bears; inhibition, %; compound at 20 µM; confirmation repeats;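 mean of two retest wells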
MT1-MMP act inh RFP: second read-out of MT1-MMP act inh, no call of its own (marks repeat the call); RFP signal change, %; measured here: RFP expression control read;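 0 = vehicle wells; hits needed this value within 50% of zero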
Active calls of the source: *; i = inactive; / = not tested or not shown; + = active, no number.

SMILES	CSC inhib	PABP FP inh	MT1-MMP act inh	MT1-MMP act inh RFP	Rce1 inhib	eIF4H FP inh	Yeast UUG start	Env fusion inh	others
CCOc1ncccc1C(=O)Nc1cccc(Cl)c1Cl	12	-11	-1	-3	i	0	/	i
COc1cc(OC)cc(C(=O)Nc2ccc(N3CCN(C(=O)c4cccs4)CC3)cc2)c1	14	9	-10	-14	i	-8	12	24
Cc1cccc(CNC(=O)CCCn2nc(C)c3c(C)n(-c4ccccc4)nc3c2=O)c1	0	1	2	1	i	-3	5	15
O=C(CCNC(=O)c1ccc(Cl)cc1)NCc1ccco1	-3	/	-1	1	/	/	29	-16
COc1ccccc1C(=O)Nc1ccc2c(c1)C(=O)NC2=O	-7	-16	0	0	i	-9	-18	0
CCOC(=O)N1CCN(C(=O)c2ccc3oc(CCc4ccccc4)nc3c2)CC1	/	/	2	-3	/	/	-10	1
Cc1cc(Oc2ccc(OCC(N)=O)nn2)nc(Cl)n1	10	2	1	3	i	8	-9	-8
C[C@@H]1CN([C@@H](C)CO)C(=O)c2cc(NS(C)(=O)=O)ccc2O[C@@H]1CN(C)Cc1ccc(C(F)(F)F)cc1	/	/	-3	-1	/	/	-9	-33
Cc1ccc(S(=O)(=O)CCC(=O)OCC(=O)N(Cc2ccccc2)C(C)C)cc1	-4	/	-1	2	i	/	17	/
CCOC(=O)c1sc(N)c(C(=O)OC)c1C	-3	-4	1	0	i	-7	/	-15
Cn1c(SCCOc2ccc(F)cc2)nnc1-c1ccncc1	-18	-1	1	2	i	-2	-13	11
O=C(NCc1ccco1)C(c1cccs1)N(Cc1ccccc1)C(=O)Cn1nnc2ccccc21 (configuration not stated)	-29	-4	-2	-1	i	-6	-7	/
CCc1cc2c(COC(=O)c3c(C)noc3C)cc(=O)oc2cc1O	21	4	-6	-4	i	0	-4	-9
CCC(C)NS(=O)(=O)c1ccc(NS(C)(=O)=O)cc1 (configuration not stated)	-11	-4	1	3	i	-4	-7	/
CCOC(=O)Cn1c(=O)oc2cc(S(=O)(=O)NCc3ccccn3)ccc21	-5	23	-4	0	i	16	-21	0
Cc1nn(-c2ccccc2)c2c1C(c1ccco1)C(C#N)=C(N)O2 (configuration not stated)	-8	9	4	4	i	2	-10	-51
Cc1ccccc1OCCC(=O)Nc1ccc(S(=O)(=O)N2CCCC2)cc1	/	/	1	3	/	/	-7	4
O=C1CSC(c2cccs2)N1c1ccccc1 (configuration not stated)	-14	-9	2	-2	i	-7	11	/
CCOCCCNc1nc(=S)[nH]c2cc(OC)c(OC)cc12	-2	9	4	-7	i	-2	-11	22
CC(=O)c1cccc(NC(=O)Cn2nc(-c3ccccc3Cl)ccc2=O)c1	3	-3	-4	-2	i	-4	/	-1
Cc1ccc(S(=O)(=O)NC(CC(=O)O)c2ccccc2)c(C)c1 (configuration not stated)	-13	7	0	-2	i	6	-12	-1
COc1ccc(C2N3CC4(C)CN2CC(C)(C3)C4)cc1OC (configuration not stated)	0	3	5	1	i	-2	-14	-59
Cc1cccc2cc3c(N)c(C#N)sc3nc12	-4	8	-30	-1	i	12	2	91*
COc1ccc(CNc2nc(-c3cccnc3)nn2C(=O)c2cccs2)cc1	-16	-10	3	1	i	0	/	/
CCCc1ccc(C(=O)/C=C/N(C)C)cc1	10	-4	-5	-6	i	-7	-10	-25
CCn1c(SCC(=O)Nc2sc3c(c2C#N)CCC(C(C)(C)C)C3)nnc1-c1ccco1 (configuration not stated)	1	-13	-1	-2	i	-14	-10	-17
COCc1cc(C)nc(OCC(=O)N/N=C/c2ccc(C)o2)c1C#N	-14	-12	-4	-1	i	-9	/	18
Cc1ccccc1CC1(CO)CCCN(Cc2ccc(C#CC(C)(C)O)cc2)C1 (configuration not stated)	12	-9	-2	-1	/	-8	/	-30
CCCCOC(=O)Cn1cnc2ccc(Br)cc2c1=O	6	-5	2	2	i	0	-2	-20
COc1ccc(-c2nn(-c3ccccc3)cc2/C=C(/C#N)C(N)=O)cc1[N+](=O)[O-]	-3	-3	8	3	i	-3	-5	2
O=C(O)c1ccccc1N/N=C\c1ccnc2ccccc12	35	16	-37	-2	i	-9	/	/
Cc1cc(C(=O)Nc2ccccc2C)n(-c2ccccc2)n1	-12	4	4	6	i	11	-2	-3
Cc1ccc(O)c(NS(=O)(=O)c2cccc3nsnc23)c1	-12	0	0	-1	i	-3	-7	7
CC1(C)C[C@H]2C3=CCC4[C@@]5(C)CC[C@H](O)[C@](C)(CO)C5CC[C@@]4(C)[C@]3(C)C[C@H]3O[C@@H]1[C@H](O)[C@]32CO (some centres not stated)	-21	/	-1	0	/	/	-19	10
CCN1CCN(Cc2c(O)ccc3c(=O)c(-c4ccccc4OC)coc23)CC1	-10	-3	9	4	+	-12	/	14
CC1=C(C(=O)N2CCOCC2)CC(CC(=O)NCc2cccc3ccccc23)C(=O)N1CCCN1CCCC1=O (configuration not stated)	/	/	4	6	/	/	4	-13
OC1(c2ccccc2)CCN(Cc2ccccc2)CC1	-4	-8	2	1	i	-12	-7	3
CCn1cc(C2CC(=O)NC2=O)c2ccccc21 (configuration not stated)	-28	6	-2	3	i	-4	-30	11
CCOc1ccc(-n2c(=S)sc3c(=O)n(-c4ccccc4)c(SCC(=O)O)nc32)cc1	-15	-2	-2	-1	i	-3	-16	-3
Cc1c(NC(=O)COC(=O)c2ccccc2Cl)c(=O)n(-c2ccccc2)n1C	-19	-6	-3	-1	i	6	/	7
COc1ccc(NC(=O)CN(C)C(=O)c2cn(-c3ccccc3)nc2-c2ccc(F)cc2)cc1	-7	/	-2	0	/	/	5	12
CCCCNC(=O)C(=O)N/N=C/c1ccc(OCC(=O)Nc2cccc(OC)c2)c(OC)c1	/	-12	5	3	i	-3	/	/
CCOc1ccc2c(c1)n([O-])c1c([n+]2=O)CCCC1	/	-3	2	1	i	-3	-5	/
COC(=O)c1c(NC(=O)c2nc3ccccc3s2)sc2c1CC(C)(C)NC2(C)C	68	-12	-337	-83	i	-8	-22	-10
c1ccc(CCN2CCN=C2Nc2ccccc2)cc1	-2	8	3	2	i	0	-19	-6

Already shown: entries from further up.
SMILES	CSC inhib	PABP FP inh	MT1-MMP act inh	MT1-MMP act inh RFP	Rce1 inhib	eIF4H FP inh	Yeast UUG start	Env fusion inh	others
CC1=C(C(=O)N2CCOCC2)CC(CC(=O)NCc2cccc3ccccc23)C(=O)N1CCCN1CCCC1=O (configuration not stated)	/	/	4	6	/	/	4	-13
OC1(c2ccccc2)CCN(Cc2ccccc2)CC1	-4	-8	2	1	i	-12	-7	3

(more compounds)
SMILES	CSC inhib	PABP FP inh	MT1-MMP act inh	MT1-MMP act inh RFP	Rce1 inhib	eIF4H FP inh	Yeast UUG start	Env fusion inh	others
CN1OC[C@@H]2CN3C(=O)N(c4cccc5ccccc45)c4ccccc4[C@@H]3C[C@@H]21	/	/	3	9	/	/	6	23
CN(C)S(=O)(=O)N1CCN(CC(O)COc2ccc3cc(Br)ccc3c2)CC1 (configuration not stated)	26	-7	3	-11	i	-6	-4	/
CCCN(CCC)Cc1cc(=O)oc2cc3c(cc12)CCC3	8	5	-1	4	i	3	/	19
O=C1c2ccccc2[C@@H]2C[C@@H](O)[C@H](Nc3ccccc3-c3ccccc3)CCN12	/	/	-3	0	/	/	15	5
CC[C@@]1(C(=O)OC)N[C@H](CN(C)C(=O)COc2ccccc2)[C@@H]2C(=O)N(Cc3ccccc3)C(=O)[C@@H]21	/	/	-2	1	/	/	1	69*
COc1ccc(CCn2c(C)cc(C(=O)CSc3nc(N)cc(=O)[nH]3)c2C)cc1	/	-7	-3	-22	i	-7	-3	70*
CSc1nc(N2CCCC2)c2c(c1C#N)CC(C)(C)OC2	-19	3	-8	-6	i	-2	-10	-132
CC(=O)N1CCN(c2ccccc2NC(=O)c2ccc(Br)o2)CC1	1	9	-6	-1	i	0	5	-2
CC1SC(=Nc2ccccc2)N(S(=O)(=O)c2ccccc2)C1=O (configuration not stated)	3	-7	-4	0	i	-8	-15	/
C/C(=N/NC(=O)Cc1ccccc1)c1ccc(C)s1	8	-4	2	2	i	3	-11	-13
O=c1[nH]c(SCc2ccccc2[N+](=O)[O-])nc2nc[nH]c12	10	15	1	4	i	5	-12	0
O=C(c1cn(-c2ccccc2)nc1-c1cccs1)N(CCO)Cc1ccccc1	12	-6	-4	-6	i	4	10	-100
COC(=O)C1(C(F)(F)F)C2C=CC(C2)N1S(=O)(=O)c1ccc(C)cc1 (configuration not stated)	/	2	1	3	i	8	/	7
CCc1nc(CNC(=O)C2CCC(=O)N(CCc3ccc(OC)cc3)C2)cs1 (configuration not stated)	-7	-2	-2	1	/	-4	-17	8
O=C1CC(c2ccc3c(c2)OCO3)Sc2nc3ccccc3n21 (configuration not stated)	15	4	-1	1	i	-2	-36	/

Compounds listed so far that contain a COOH group:
SMILES	CSC inhib	PABP FP inh	MT1-MMP act inh	MT1-MMP act inh RFP	Rce1 inhib	eIF4H FP inh	Yeast UUG start	Env fusion inh	others
Cc1ccc(S(=O)(=O)NC(CC(=O)O)c2ccccc2)c(C)c1 (configuration not stated)	-13	7	0	-2	i	6	-12	-1
O=C(O)c1ccccc1N/N=C\c1ccnc2ccccc12	35	16	-37	-2	i	-9	/	/
CCOc1ccc(-n2c(=S)sc3c(=O)n(-c4ccccc4)c(SCC(=O)O)nc32)cc1	-15	-2	-2	-1	i	-3	-16	-3

The list goes on.
SMILES	CSC inhib	PABP FP inh	MT1-MMP act inh	MT1-MMP act inh RFP	Rce1 inhib	eIF4H FP inh	Yeast UUG start	Env fusion inh	others
CCOC(=O)C1CCN(S(=O)(=O)c2ccc(C)cc2)CC1	-5	-3	3	0	i	-4	8	/
CC1CN(S(=O)(=O)c2cn(C)c(=O)n(C)c2=O)CC(C)O1 (configuration not stated)	6	1	-4	2	i	8	-6	-23
CCCCOC(=O)Cn1c2ccc(OC)cc2c2nc3ccccc3nc21	0	119	-70	-5	i	125	-7	-11	eIF4H FP inh retest=14;PABP FP inh retest=12
O=C(N/C(=C\c1ccccc1)C(=O)N1CCCCC1)c1ccco1	-4	7	5	9	i	5	-11	-13
O=C1c2[nH]nc(-c3ccccc3O)c2C(c2cccc(Cl)c2)N1Cc1ccco1 (configuration not stated)	92*	-2	3	-9	i	-5	-13	-52
Cc1ccc2nc3n(c(=O)c2c1)-c1cc2ccccc2cc1C(=O)NC3Cc1ccccc1 (configuration not stated)	/	/	-6	-16	/	/	-3	-84
COc1ccc2c(c1)c(C(=O)CN1CCN(c3ccccc3)CC1)c(C)n2C	-6	3	/	/	i	4	/	/
Cc1c(C(=O)NCCCN2CCCCC2)oc2ccc3c(c12)C(O)CC1(CCCCC1)O3 (configuration not stated)	27	-1	-6	-5	i	-11	-14	18
COCCNC(=S)N1CCC2CC1c1c(Cl)cccc12 (configuration not stated)	/	/	-1	2	/	/	7	-29
CC1CCC(NC(=O)CN2C(=O)C3CCCN3c3ncc(Cl)cc32)CC1 (configuration not stated)	/	-10	/	/	i	-9	/	/
C(=N\Nc1nc2ccccc2[nH]1)/C1CCCCC1	-10	3	5	3	i	6	/	18
CCn1cc(C(=O)NCCCN(CC(C)C)CC(C)C)c(=O)c2cc(S(=O)(=O)N3CCOCC3)ccc21	10	2	1	1	i	18	-7	4
O=C(c1ccccc1)c1ccc(OCCO)cc1	-8	4	0	-2	i	2	-12	-8
O=c1[nH]c(SCc2n[nH]c(=S)n2-c2ccccc2)nc2ccccc12	-2	6	-1	-5	i	14	-10	/

A portion of the library; count on the stated rates, not on these rows.
